GALR2 agonist = GALR2 receptor agonists, primary screen, cell-based | 140,000 tested, 0.48% active | GALR2-expressing cells, agonist activation read-out | activation, %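 (tested at 5 µM)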;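 active = above mean plus 3 SD of all compounds, about 5% in these data, not always enough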;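 also: 0% = vehicle buffer wells and 100% = reference agonist at full effect; tested in CHO reporter cells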
PKD1 inh = inhibitors of human PKD1 kinase, biochemical, fluorescence polarization. PKD1 kinase fluorescence polarization assay. 200,000 tested, 0.056% active. AID 797, 2007. inhibition, %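 (about 10 µM by stock and volumes)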. Serine/threonine-protein kinase D1 (Homo sapiens), Q15139;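 active = inhibition of 50% or more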;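 also: controls were vehicle for no effect and a reference inhibitor for full effect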
Target sequence (Q15139 whole entry, looked up): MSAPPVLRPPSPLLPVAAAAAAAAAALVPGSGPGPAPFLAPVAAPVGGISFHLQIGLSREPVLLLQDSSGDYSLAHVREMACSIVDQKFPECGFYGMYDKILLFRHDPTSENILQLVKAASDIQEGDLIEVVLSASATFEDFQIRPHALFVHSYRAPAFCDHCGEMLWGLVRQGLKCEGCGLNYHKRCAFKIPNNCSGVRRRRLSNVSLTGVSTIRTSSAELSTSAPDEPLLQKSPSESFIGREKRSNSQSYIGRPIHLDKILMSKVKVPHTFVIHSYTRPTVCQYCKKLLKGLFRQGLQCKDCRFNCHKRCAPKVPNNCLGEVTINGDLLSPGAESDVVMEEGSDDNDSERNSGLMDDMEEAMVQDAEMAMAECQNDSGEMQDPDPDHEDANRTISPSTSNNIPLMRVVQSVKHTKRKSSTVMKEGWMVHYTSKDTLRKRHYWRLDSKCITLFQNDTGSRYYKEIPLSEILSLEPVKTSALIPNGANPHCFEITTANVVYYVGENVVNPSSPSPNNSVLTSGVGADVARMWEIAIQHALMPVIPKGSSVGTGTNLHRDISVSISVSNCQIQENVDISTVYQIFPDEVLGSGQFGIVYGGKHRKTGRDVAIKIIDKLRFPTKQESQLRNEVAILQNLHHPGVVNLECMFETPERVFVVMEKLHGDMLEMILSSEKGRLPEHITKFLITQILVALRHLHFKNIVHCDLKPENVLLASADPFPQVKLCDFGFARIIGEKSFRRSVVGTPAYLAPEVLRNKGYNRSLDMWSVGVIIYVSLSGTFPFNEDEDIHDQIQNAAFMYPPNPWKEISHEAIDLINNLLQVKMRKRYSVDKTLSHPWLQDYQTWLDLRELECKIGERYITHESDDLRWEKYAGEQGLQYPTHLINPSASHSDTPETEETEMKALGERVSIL
RGS16-Gao HTS = modulators of RGS16 binding to Galphao, primary screen, biochemical, human proteins, multiplexed bead flow cytometry; bead-based flow cytometry RGS16-Galphao binding, fluorescence; actives lie on both sides; binding response (% of control), % at 10 µM; 220,000 tested, 0.38% active; AID 1441, 2008;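 active = below 25% or above 175%, edge rows of some plates excepted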;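 also: Galphao activated by GDP with aluminum fluoride before binding; 100% = wells without compound and 0% = beads without RGS; some results beyond the cut were filed as inactive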
INS promoter inh = inhibitors of insulin promoter-driven GFP, primary screen, imaging, TRM-6 cells (human fetal islet line), eGFP reporter, cell count | reporter expression induced with tamoxifen | AID 1273, 2008 | inhibition, % at 2 µM | 130,000 tested, 0.9% active;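 active = inhibition above the mean plus 3 SD, with well images judged a real hit on visual review, cut at about 60% in these data, passing the limit was not always enough; inconclusive = inhibition over the cutoff but images rejected on review; inactive = inhibition not above the cutoff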
HSV replic up = enhancers of HSV replication in host cells, fold increase, host cell viability; HSV replication augmentation in cells; maximum fold increase; 220,000 tested, 0.005% active; AID 1956, 2009;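 active = peak rise of 1.5-fold or more in the series; inconclusive = self-fluorescent or not available for retest; tested in PC3 cells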;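 also: first round at 10 µM; read as green reporter fluorescence; hits show the peak of a series up to 25 µM; 1 = signal of infected wells without compound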
INS promoter inh cell count = also measured in INS promoter inh; calls as there; normalized cell count, %; measured here: cell count, toxicity; reference of the scale not given here;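 cells exposed to compound for 48 h; stained nuclei by imaging scaled within each plate; lower means fewer cells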
HSV replic up primary fold = recorded beside HSV replic up, whose call it bears; fold increase; compound at 10 µM; measured here: primary screen fold increase 10 uM; tested in PC3 cells;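 GFP signal in the first replicate; 1 = infected wells without compound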
* = called active by the depositor; i = inactive; u = inconclusive; x = not tested or not shown.

SMILES	GALR2 agonist	PKD1 inh	RGS16-Gao HTS	INS promoter inh	INS promoter inh cell count	HSV replic up	HSV replic up primary fold
Oc1ccccc1/C=N/n1c2ccccc2c2ccccc21	-3.1	-4	84	x	x	i	0.91
COc1ccc2[nH]c(C(=O)NCCN3CCOCC3)cc2c1	x	x	97	x	x	i	0.9
CS(=O)(=O)NCCSCc1ccccc1	0.2	-2	99	10	113	i	0.97
CCOC(=O)c1c(NC(=S)N2CCOCC2)sc2c1CCN(C(=O)OCC)C2	x	x	89	x	x	i	0.59
Cc1c(-n2cc(C(=O)c3cc(F)ccc3O)cc(C#N)c2=O)c(=O)n(-c2ccccc2)n1C	x	0	105	-14	82	u	x
CCOC(=O)CNC(=O)c1ccc(C#CC2(O)CCCCC2)cc1	0.6	0	105	21	126	i	0.94
CC(=O)Nc1ccc(N2C(=O)CC(c3ccccc3)CC2=O)cc1	-0.7	0	125	x	x	i	0.83
Brc1ccc2ncnc(NCc3cccnc3)c2c1	x	x	101	x	x	i	0.91
CSC1=NCCN1C(=O)c1ccc(S(=O)(=O)N(C)C)cc1	-3.1	-3	99	x	x	i	1.1
O=C(CSc1ncnc2nc[nH]c12)c1ccc([N+](=O)[O-])cc1	x	x	100	x	x	i	1.2
CSc1ccc(/C=N/NC(=O)CN2CCN(Cc3ccc(C)cc3)CC2)cc1	-0.6	4	97	x	x	i	1
Cc1nn(-c2ccccc2)c(N2CCCC2)c1/C=N/NC(=S)Nc1cc(C(F)(F)F)ccc1Cl	-0.9	-15	104	x	x	x	x
CC[C@H](CO)Nc1nc(Nc2cccc(Cl)c2)c2ncn(C(C)C)c2n1	x	x	107	x	x	i	0.55
CC(=O)c1ccc(OC(=O)c2cc3ccccc3oc2=O)cc1	x	-7	95	-5	108	i	1
CCCCCCc1nc2ccccc2c(=O)n1NC(=O)c1c(O)c2c(n(CC(C)C)c1=O)CCCC2	-0.7	1	112	-11	93	i	1
COc1cccc(NC(=O)Nc2ccccc2SC)c1	x	1	94	21	69	i	1.1
Cc1cccc(N(CC(=O)Nc2c(C)n(C)n(-c3ccccc3)c2=O)S(C)(=O)=O)c1	-1.5	-10	89	19	129	i	0.94
Cc1ccc(NC(=O)Nc2cc(C)on2)cc1	x	-6	115	67	171	i	0.92
Cc1occc1C(=O)N/N=C/C1=C(N2CCOCC2)C(=C\c2ccc(Cl)cc2Cl)/CC1	-2.1	-2	106	4	73	i	1.1
O=C(Nc1nnc(COc2ccccc2)s1)C1CCN(S(=O)(=O)c2ccc(Cl)cc2)CC1	-1.9	3	103	x	x	i	0.88
Cc1c(/C=N/NC(=O)CNc2ccccc2)c2ccccn2c1C(=O)c1ccc(Cl)cc1	-2.1	0	94	x	x	i	0.86
S=C(Nc1ccc(Cl)c(Cl)c1)NC1CCCCC1	-1.5	-7	102	-9	52	i	0.72
O=C(NCCO)C(c1ccccc1)c1ccccc1	-0.9	-12	101	8	74	i	0.99
Cc1ccc(C(=O)OCC(=O)Nc2ccc(S(N)(=O)=O)cc2)c(O)c1	x	x	97	x	x	i	0.87
CC(C)CN(C(=O)COC(=O)C12CC3CC(CC(O)(C3)C1)C2)C1CCS(=O)(=O)C1 (centres undefined)	-2.9	-11	97	x	x	i	1.1
CC(C)C[C@H](NC(=O)c1nc[nH]c1C(=O)N1CCN(C(=O)OC(C)(C)C)CC1)C(=O)OCc1ccccc1	x	-3	88	x	x	i	0.89
Cc1c(Cl)ccc2c(C(=O)NC(C)c3ccncc3)cc(-c3ccncc3)nc12 (centres undefined)	x	-2	102	x	x	i	0.75
Cc1cc(NC(=O)CCCC(=O)NCc2cccs2)no1	-0.8	-13	99	-6	80	i	1.1
COc1ccc(N(C)C2=NS(=O)(=O)c3ccccc32)cc1	1.1	-1	104	x	x	i	0.72
CCC1C/C(=C/c2ccco2)C(=O)/C(=C/c2ccco2)C1 (centres undefined)	-1.7	-17	97	21	76	i	1.2
COc1cc(NC(=O)c2cccnc2Sc2ccc(C)c(C)c2)cc(OC)c1OC	0.5	3	99	x	x	i	1.1
NC(Cc1ccc2nonc2c1)C(=O)O (centres undefined)	-2.5	-8	100	59	94	i	0.97
COc1ccc(C(C)C)cc1S(=O)(=O)N1CCN(c2ccccc2)CC1	x	3	108	x	x	i	0.98
CN(C(=O)CCc1nnc(Cc2ccc(-c3ccccc3)cc2)o1)C1CCOCC1	x	6	100	x	x	i	1.1
CC(C)CC(=O)N1CCC(O)(CS(=O)(=O)c2ccc(Cl)c(Cl)c2)CC1	x	-6	110	-22	184	i	0.93
CCN(CCCNC(=O)c1[nH]c(C)c(C(C)=O)c1C)c1ccccc1	-1.0	-8	101	-97	147	i	0.83
O=C(Cn1c2[n+](c3ccc(C(F)(F)F)cc31)CCCCC2)Nc1c(F)cccc1F	x	-6	103	x	x	i	0.85
CCOC(=O)C1CCN(Cc2ccccc2C)CC1	-0.4	-6	102	35	68	i	0.75
Cc1ccc(CN2CCN(Cc3c(C)nn(C(C)C)c3C)CC2CCO)o1 (centres undefined)	x	0	100	x	x	i	0.83
Fc1ccc(Cn2ccc(-c3cnc(-c4ccccc4)s3)n2)cc1	-3.1	-6	110	-8	78	i	0.85
Cc1ccnc(NC2CCCCC2)c1	x	-4	246	21	98	i	1
Cc1nc2ccccn2c1C(=O)N/N=C/c1ccccc1[N+](=O)[O-]	-1.9	-5	104	x	x	i	0.67
COc1ccc(SCC(=O)Nc2ccccc2Cl)cc1	x	0	95	-38	137	i	0.96
CCOC(=O)CSc1nc(N)c2c3c(sc2n1)CCCC3	-1.6	-7	94	34	151	i	1
Cc1ccc2nc(-c3cc(-c4ccccc4)no3)cn2c1	x	x	105	x	x	i	0.93
O=C(NC(=S)Nc1ccc2oc(=O)ccc2c1)c1cc2ccccc2o1	x	x	108	x	x	i	0.96
CCN(CC)S(=O)(=O)c1ccc(N2CCCC2)c(C(=O)OCC(=O)Nc2cc(C)on2)c1	x	x	108	x	x	i	0.85
CCOc1ccc(NCc2nnc(SCC(=O)Nc3nc(-c4ccccc4)cs3)n2-c2ccccc2)cc1	1.1	-24	109	-39	96	i	0.69
COc1ccc(OCC(=O)NNc2c3ccccc3nc3ccccc23)cc1	0.6	6	102	-28	88	i	0.71
CCOC(=O)Cn1nc(CC)c2ccccc2c1=O	-2.2	-7	102	-29	91	i	0.87
CCOc1ccc(C2CC(c3cccc(OC)c3)n3nc(N)nc3N2)cc1 (centres undefined)	-0.3	-10	101	x	x	i	1.1
N#CC1=C(O)CCCn2c1nc1ccccc1c2=O	-0.9	-6	100	-36	80	i	0.88
Clc1ccccc1OCCCCN1CCCC1	-3.4	9	98	-64	111	i	1
CC(C)NC(=O)CSCc1ccccc1Cl	-1.6	-2	102	45	84	i	0.97
CN(C)c1ccc(C(O)P(=O)(OC2CCCCC2)OC2CCCCC2)cc1 (centres undefined)	x	x	103	x	x	i	1.1
CSc1ccc(CN2CCN(C(=O)c3ccc([N+](=O)[O-])cc3)CC2)cc1	x	-3	101	x	x	i	1.1
Cc1nc(-c2ccccc2)c(Cc2ccccc2O)c(=O)[nH]1	x	x	102	x	x	i	0.86
CCCCn1c(N)c(Sc2ccc(C)cc2)c(=O)[nH]c1=O	-1.4	0	100	x	x	i	1
CC1CCN(c2cc(N3CCN(C(=O)c4ccc(F)c(F)c4)CC3)c([N+](=O)[O-])cc2F)CC1	-0.3	-2	101	-75	111	i	1.1
O=C(Nc1ccc2oc(-c3cccnc3)nc2c1)c1ccc(Br)o1	-4.5	-10	97	-52	106	i	0.89
(more compounds)
SMILES	GALR2 agonist	PKD1 inh	RGS16-Gao HTS	INS promoter inh	INS promoter inh cell count	HSV replic up	HSV replic up primary fold
Cc1cc(C)c(OCC(=O)N/N=C/c2ccc3c(c2)OCO3)c(C)c1	0.6	12	122	7	74	i	0.71
CC(=O)C(C)Oc1ccc2c3c(c(=O)oc2c1C)CCCC3 (centres undefined)	-2.1	-15	102	x	x	x	x
CC(C)CNC(=O)c1ccccc1NC(=O)CSCc1ccccc1	-1.3	-2	93	38	109	i	0.85
O=C1CSC(=S)N1/N=C/c1cccnc1	x	x	94	x	x	i	1
CCc1ccc(NC(=O)COC(=O)/C(=C/c2ccccc2OC)c2ccccc2)cc1	-1.0	0	98	x	x	i	1.1
CSc1nc2sc3c(c2c(=O)n1C)CCC(C)C3 (centres undefined)	-1.4	-16	104	-55	101	i	1.1
COc1ccc(NC(=O)c2cc(-c3ccco3)on2)cc1	x	-6	92	11	70	i	0.91
Cc1ccc([N+](=O)[O-])cc1N(CC(=O)NC1CCCC1)S(C)(=O)=O	x	1	100	x	x	i	0.81
CC1(C)OC(C(=O)NC2CCCCC2)C(C(=O)NC2CCCCC2)O1 (centres undefined)	0.0	2	103	x	x	x	x
C=CCn1c(C(C)NC(=O)c2ccccc2)n[nH]c1=S (centres undefined)	-2.2	-7	99	x	x	i	0.99
COCc1c(C(=O)NC2CCCCCC2)oc2ccccc12	x	-2	100	x	x	i	0.96
COc1ccc(Nc2ccc(OC)cc2)cc1	x	x	102	x	x	i	0.8
COc1ccccc1CNC(=O)c1cccc2c1C(=O)N(Cc1cccnc1)C2	x	-8	96	x	x	i	1.2
COC(=O)c1[nH]c(C)c(/C(O)=C2\C(=O)C(=O)N(CCN3CCOCC3)C2c2cccs2)c1C (centres undefined)	x	x	107	x	x	i	0.78
COc1ccc(C(=O)/C=C/Nc2ccc(NC(C)=O)cc2)cc1OC	1.0	2	94	-26	110	i	0.84
CNC(=S)NNC(=O)c1cccn(Cc2cccc(Cl)c2)c1=O	-1.6	9	100	-35	120	i	0.86
Cc1ccccc1C(=O)N1CCN(c2ccc(NC(=O)c3cccnc3)cc2)CC1	x	-3	102	x	x	i	0.9
COc1ccc(S(N)(=O)=O)cc1C(=O)NCCCN1CCN(c2cccc(Cl)c2)CC1	-0.6	7	105	x	x	x	x
C=CCNC(=O)c1cc(=O)c2ccccc2o1	-2.1	-1	114	x	x	i	0.76
Cc1cc(=O)[nH]c(S)c1C#N	x	x	105	x	x	i	0.88
COc1ccc(/C=C2/SC(=O)N(CCC(=O)Nc3ccccc3)C2=O)cc1OC	-1.9	9	128	29	52	i	0.87
CCCC1CCC(=NNC(=S)NCCc2ccccc2)CC1 (centres undefined)	x	-5	95	-50	135	i	0.91
CC(C)c1nnc(NC(=O)c2sc3ccccc3c2Cl)s1	-0.4	-1	78	3	166	i	0.99
CCOC(=O)C1CCN(C(=O)c2ccc(OC)cc2OC)CC1	-0.7	-10	100	-23	92	i	1
Cc1ccc2nc(NCc3ccccc3)c(C=NCc3ccccc3)c(=O)n2c1	-1.1	-2	100	25	136	i	1
COc1ccc(OC)c(NC(=O)COC(=O)C2CCN(C(=O)c3ccc(Cl)cc3)CC2)c1	x	-2	102	x	x	i	1.1
CCOc1cccc(-c2cc(=O)[nH][nH]2)c1	-1.0	-1	105	31	149	i	1.1
COc1ccc2[nH]c(=S)[nH]c2c1	-4.1	1	103	-14	195	i	0.84
COc1cc(C)ccc1NC(=O)c1ccc(S(=O)(=O)N2CCOCC2)cc1	-1.0	-13	99	6	128	i	0.98
O=C(Nc1ccncc1)c1cc(-c2ccccn2)nc2ccccc12	x	3	104	x	x	i	1
CCc1ccc(NC(=O)c2cnn3c(C(F)F)cc(C)nc23)cc1	x	-2	97	30	122	i	0.88
COc1cnc(-c2ccccn2)nc1Oc1c(C)cccc1C	x	-5	109	-15	98	i	0.96
COCc1ccc(C(=O)N2CCCC(C(=O)c3cccc(C(F)(F)F)c3)C2)o1 (centres undefined)	x	-9	101	x	x	i	0.84

Quoted at random: five compounds from above.
SMILES	GALR2 agonist	PKD1 inh	RGS16-Gao HTS	INS promoter inh	INS promoter inh cell count	HSV replic up	HSV replic up primary fold
O=C(Nc1ccncc1)c1cc(-c2ccccn2)nc2ccccc12	x	3	104	x	x	i	1
COc1ccc(OC)c(NC(=O)COC(=O)C2CCN(C(=O)c3ccc(Cl)cc3)CC2)c1	x	-2	102	x	x	i	1.1
COc1ccc2[nH]c(=S)[nH]c2c1	-4.1	1	103	-14	195	i	0.84
Cc1ccc2nc(NCc3ccccc3)c(C=NCc3ccccc3)c(=O)n2c1	-1.1	-2	100	25	136	i	1
CCOc1cccc(-c2cc(=O)[nH][nH]2)c1	-1.0	-1	105	31	149	i	1.1

Screening results as filed in PubChem BioAssay.

Compounds were not picked by outcome; any-hit rate near 1.1%.
